From PubChem
GIRK2 activ – activators of human GIRK2 potassium channels. AID 1259325. calls only for hits at 25 µM. P48051. HEK293-GIRK2 thallium flux, Thallos fluorescence. 63,000 tested, 0.05% active;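 active = among the strongest 0.2% of first-round signals and kept after retests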;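 note: first round at about 10 µM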
Target sequence (P48051 whole entry, looked up): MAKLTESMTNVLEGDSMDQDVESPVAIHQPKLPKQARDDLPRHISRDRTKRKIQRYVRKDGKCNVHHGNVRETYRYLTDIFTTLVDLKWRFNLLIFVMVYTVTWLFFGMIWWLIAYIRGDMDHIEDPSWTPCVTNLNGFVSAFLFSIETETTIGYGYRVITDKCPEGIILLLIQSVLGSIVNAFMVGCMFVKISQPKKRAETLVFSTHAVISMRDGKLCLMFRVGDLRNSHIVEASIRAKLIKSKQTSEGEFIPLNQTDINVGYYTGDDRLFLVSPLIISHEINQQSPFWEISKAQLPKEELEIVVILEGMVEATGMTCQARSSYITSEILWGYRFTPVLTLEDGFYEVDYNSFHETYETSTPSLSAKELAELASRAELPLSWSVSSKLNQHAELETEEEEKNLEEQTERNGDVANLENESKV
Calls only; i = inactive. Some of the compounds tested, so the mix of outcomes need not match the whole.

SMILES	GIRK2 activ
CC(C)(C)NC(=O)N1CCN(CC(O)C2CC2)CC1 (centres undefined)	i
CCN(CC)CCN1C(=O)C(O)=C(C(=O)c2sc(C)nc2C)C1c1ccc(F)cc1 (centres undefined)	i
COCCN(Cc1ccncc1)C(=O)NCc1ccccc1	i
O=C(NCc1ccco1)c1csc(-c2cnccn2)n1	i
CN(C)CCc1c[nH]c2ccc(C[C@H]3COC(=O)N3)cc12	i
COC(=O)C1=C(CS(=O)(=O)c2cc(OC)ccc2OC)NC(=O)NC1c1ccccc1 (centres undefined)	i
O=C(Nc1cnc(N2CCCC2)nc1)Nc1ccc(Cl)c(C(F)(F)F)c1	i
Cc1cc(CNC(=O)C(=O)NCc2ccccc2)c(C)o1	i
Cc1ccc2nc(N(CCN(C)C)C(=O)CCCS(=O)(=O)c3ccccc3)sc2c1	i
COc1cccc(/C=N\NC(=O)c2nc(N)n[nH]2)c1OC	i
COc1cc(OC)cc(C(=O)N2CCN(c3ncnc4c3nnn4-c3ccc(C)cc3)CC2)c1	i
O=C(Nc1ccc(S(=O)(=O)Nc2ncccn2)cc1)c1csc2nc(-c3ccc(F)cc3)cn12	i
CCCCNC(=O)N1CCC(C(=O)OC)CC1	i
O=C1/C(=C/c2cc(Br)cc3c2OCOC3)Oc2cc(OC(=O)N3CCOCC3)ccc21	i
Cc1ccc2c(c1)C(O)(CC(=O)c1cccs1)C(=O)N2 (centres undefined)	i
COC(=O)c1ccc(CN2CC(c3nc(-c4ncccn4)no3)C2)cc1	i
Cc1nc(-c2ccccc2F)sc1CNC(=O)Cn1nnc2ccccc21	i
C[C@H](C[C@@H]1CC=CC(=O)O1)OC(=O)CCc1ccc(O)c(O)c1	i
Clc1ccccc1N1CCN(c2nc(N3CCOCC3)c3n[nH]nc3n2)CC1	i
CC1CN(Cc2cc(=O)oc3cc(-c4ccccc4)c(O)cc23)CC(C)O1 (centres undefined)	i

3 compounds from above, ordered by formula weight, lowest first:
SMILES	GIRK2 activ
COC(=O)c1ccc(CN2CC(c3nc(-c4ncccn4)no3)C2)cc1	i
O=C(Nc1cnc(N2CCCC2)nc1)Nc1ccc(Cl)c(C(F)(F)F)c1	i
COC(=O)C1=C(CS(=O)(=O)c2cc(OC)ccc2OC)NC(=O)NC1c1ccccc1 (centres undefined)	i

Following part:
SMILES	GIRK2 activ
O=C(CCCc1nnc2c(=O)n(-c3ccc(Cl)cc3)ccn12)N1CCN(c2ccc(F)cc2)CC1	i
COC(=O)c1ccc(S(=O)(=O)NCCc2ccsc2)cc1	i
COc1ccc(-c2nc(Cn3nnc(C(=O)Nc4ccccc4C)c3N)c(C)o2)cc1	i
Cc1cn2c3c(=O)n(Cc4cccc5ccccc45)c(=O)n(C)c3nc2n1CCN(C)C	i
Cc1ccc(C(CNS(=O)(=O)Cc2cc(F)ccc2F)N2CCOCC2)cc1 (centres undefined)	i
N#Cc1nc(-c2ccc(S(=O)(=O)N3CCCCC3)cc2)oc1NCc1ccco1	i
O=C(CCn1ccc(=O)[nH]c1=O)N1CCCC(c2nnc(-c3cccs3)o2)C1 (centres undefined)	i
COc1ccccc1OCC#CCNC(=O)c1cccnc1OC	i
CCn1c(=O)c2c(nc3n2CC(C)=NN3CC(=O)OC)n(C)c1=O	i
O=C(NC(=O)c1ccccc1)Nc1ccncc1	i
Cc1cc(S(=O)(=O)N2CCC(CSc3nccn3C)CC2)c(Cl)cc1Cl	i
COCCN(Cc1ccsc1)S(=O)(=O)c1cc(C)c(Cl)cc1Cl	i
O=C1c2oc3ccccc3c(=O)c2C(c2cccc(Cl)c2)N1CC(O)c1ccccc1 (centres undefined)	i
O=C(Nc1nccs1)C1CCN(C(=O)c2cc(=O)c3ccccc3o2)CC1	i
O=C(Cn1nc2c(c1NC(=O)COc1ccc(Cl)cc1)CSC2)NCCc1ccccc1	i
CCOc1ccc(S(=O)(=O)N2CCN(c3cccc(C)c3C)CC2)cc1	i
COc1cc2c(cc1OC)CN(C(=O)C(c1ccccc1)n1cccc1)CC2 (centres undefined)	i
Clc1ccc2c(c1)C1=C(C(c3cccnc3)O2)C(c2cccnc2)n2nnnc2N1 (centres undefined)	i
COC(=O)Cn1c(=O)c2c(nc3n2CC(C)CN3c2ccc(Oc3ccccc3)cc2)n(C)c1=O (centres undefined)	i
COC(=O)c1ccc(Cl)cc1NC(=O)C1=Cc2ccccc2OC1	i
O=C(/C=C/c1ccccc1)NCC(O)c1ccoc1 (centres undefined)	i
COc1ccc(CNC(=O)NCC#CCN2CCCC2)cc1	i
Nc1nc2ccc(OC(F)(F)F)cc2s1	i
NC(=O)c1ccccc1OCC#CCNC(=O)CCC(=O)c1ccc(Cl)cc1	i
CC(C)NC(=O)CCCCn1c(=O)c2ccccc2n(CC(=O)Nc2ccc3c(c2)OCO3)c1=O	i
CS(=O)(=O)c1cccc2sc(N3CCN(C(=O)C4=COCCO4)CC3)nc12	i
Cc1cc(NC(=O)c2ccc([N+](=O)[O-])o2)sn1	i
Cc1cn2c3c(=O)n(C)c(=O)n(C)c3nc2n1CCN1CCN(c2ccccc2)CC1	i
COC(=O)c1ccc(C2c3c(oc4ccc(Br)cc4c3=O)C(=O)N2C)cc1 (centres undefined)	i
O=C(c1cc2ccccc2[nH]1)N1CCN(CCn2ccnc2)CC1	i
COCC(=O)Nc1c2c(nn1CC(=O)NCCc1ccccc1)CSC2	i
COC(=O)c1c(S(=O)(=O)N2CCN(c3ccc(OC)cc3)CC2)n[nH]c1C	i
Cc1ccc(-n2nnc(C(=O)Nc3nccs3)n2)cc1	i
COc1ccccc1NC(=O)C(=O)NCCC1CCCCN1S(=O)(=O)c1ccc(F)cc1 (centres undefined)	i
O=C(CCCc1ccccc1)N1CCN(CC(O)c2cccs2)CC1 (centres undefined)	i
O=C(NCCn1nc(-c2ccco2)ccc1=O)c1cnn2c1OCCC2	i
Cc1ccc(-n2c(=S)sc3c(=O)n(C)c(SCC(=O)NC4CCCCC4)nc32)cc1	i
COc1cc2c(cc1OC)CN(C(=O)c1c(C)nc3ccccn13)CC2	i
NC(=O)Cn1ccn2nc(-c3ccc(Cl)cc3)cc2c1=O	i
O=C(Cn1cc(S(=O)(=O)N2CCCCC2)ccc1=O)NCc1ccc(F)cc1	i

Copied from the listing, 3 compounds:
SMILES	GIRK2 activ
COC(=O)c1ccc(C2c3c(oc4ccc(Br)cc4c3=O)C(=O)N2C)cc1 (centres undefined)	i
O=C(c1cc2ccccc2[nH]1)N1CCN(CCn2ccnc2)CC1	i
COCC(=O)Nc1c2c(nn1CC(=O)NCCc1ccccc1)CSC2	i

(cont.)
SMILES	GIRK2 activ
COc1ccc(CC(C)(O)CNC(=O)C(=O)NCCC2=CCCCC2)cc1 (centres undefined)	i
Cc1nsc(C(=O)N2CCN(Cc3ccc4c(c3)OCO4)CC2)n1	i
Cc1ccc(CNC(=O)c2ccc(-n3ccnc3SCC(=O)Nc3ccccc3C#N)cc2)cc1	i
COc1ccc(/C=C(\C#N)c2nc3ccccc3o2)cc1OC	i
CCc1ccccc1NC(=O)/C=C/c1ccccc1OC	i
Cc1ccc(NS(=O)(=O)c2[nH]ncc2C(=O)NCc2ccc(F)cc2Cl)cc1	i
CC(C)(C)C(=O)CCc1ccccc1	i
COc1cc(NS(=O)(=O)c2ccc(F)cc2)ncn1	i
O=C(c1ccc2ccccc2c1)N(C(=O)N1CCCCC1)c1ccccc1	i
COCCn1c(=N)c(S(=O)(=O)c2ccc(C)c(C)c2)cc2c(=O)n3ccccc3nc21	i
CC(=O)Oc1ccc2c(c1)O/C(=C\c1ccc(Cl)c(Cl)c1)C2=O	i
COc1ccc(C(C)C)cc1S(=O)(=O)N1CCC(C(N)=O)CC1	i
Nc1ncnc2occ(-c3ccc(NC(=O)Nc4cccc(C(F)(F)F)c4)cc3)c12	i
COCC(C)NC(=O)c1nnn(-c2ccc(F)cc2)n1 (centres undefined)	i
O=C(NCC#CCN1CCOCC1)c1ccc(-c2ccccc2)cc1	i
COCCNC(=O)N(Cc1cccs1)Cc1cccn1C	i
COc1ccc(CC(=O)N2CCC(Oc3ccc(Cl)cn3)CC2)cc1OC	i
COc1cccc(NC(=O)CSc2nccn3nc(-c4ccc(C)cc4)cc23)c1	i
COc1ccccc1NC(=O)NCc1cc(-c2ccccn2)n(C)n1	i
FC(F)(F)Oc1ccccc1CN1CC(c2nc(-c3cccnc3)no2)C1	i

Compounds shown so far with two or more sulfur atoms (7):
SMILES	GIRK2 activ
Cc1ccc2nc(N(CCN(C)C)C(=O)CCCS(=O)(=O)c3ccccc3)sc2c1	i
O=C(Nc1ccc(S(=O)(=O)Nc2ncccn2)cc1)c1csc2nc(-c3ccc(F)cc3)cn12	i
COC(=O)c1ccc(S(=O)(=O)NCCc2ccsc2)cc1	i
Cc1cc(S(=O)(=O)N2CCC(CSc3nccn3C)CC2)c(Cl)cc1Cl	i
COCCN(Cc1ccsc1)S(=O)(=O)c1cc(C)c(Cl)cc1Cl	i
CS(=O)(=O)c1cccc2sc(N3CCN(C(=O)C4=COCCO4)CC3)nc12	i
Cc1ccc(-n2c(=S)sc3c(=O)n(C)c(SCC(=O)NC4CCCCC4)nc32)cc1	i

Reformatted: 4 of the compounds above.
> COCCNC(=O)N(Cc1cccs1)Cc1cccn1C
- GIRK2 activ: i

> Nc1ncnc2occ(-c3ccc(NC(=O)Nc4cccc(C(F)(F)F)c4)cc3)c12
- GIRK2 activ: i

> COc1ccc(/C=C(\C#N)c2nc3ccccc3o2)cc1OC
- GIRK2 activ: i

> Cc1ccc(NS(=O)(=O)c2[nH]ncc2C(=O)NCc2ccc(F)cc2Cl)cc1
- GIRK2 activ: i

Next section
SMILES	GIRK2 activ
COc1ccccc1-c1c(C(F)(F)F)oc2cc(OCC(N)=O)ccc2c1=O	i
O=C(Nc1ccccc1C(F)(F)F)N1CCC(CSCc2ccco2)CC1	i
Cc1ccc(O)cc1Nc1ccnc2cc(-c3ccccn3)ccc12	i
COc1ccc(NC(=O)CSc2nnc3n(CCC(=O)NC(C)C)c(=O)c4ccccc4n23)cc1	i
NC(=O)c1ccc(OCc2ccc3ccccc3n2)cc1	i
COc1cc(C(=O)NC2CCN(c3ncccc3-c3nc(C)no3)C2)cc(OC)c1OC (centres undefined)	i
COc1ccccc1N1CCN(C(=O)CCC2NC(=O)c3ccccc3NC2=O)CC1 (centres undefined)	i
COc1cc(C(C)=O)ccc1OCC(O)Cn1nc(C)nc1C (centres undefined)	i
Cc1ccc(C)c2sc(N(C)CC(=O)NCCCn3ncccc3=O)nc12	i
Cc1noc(-c2ccc(=O)n(Cc3nc(-c4cccs4)no3)c2)n1	i
COCCn1c(C(C)(C)C)cn2c3c(=O)n(C)c(=O)n(C)c3nc12	i
Clc1ccc(OCc2nc(-c3cccnc3)n[nH]2)cc1	i
COc1ccc(-n2nnnc2CNS(=O)(=O)c2ccc(F)cc2)cc1	i
Cc1cccc2sc(NC(=O)c3coc(NC(=O)c4cnccn4)n3)nc12	i
COc1ccc(C(=O)NC2=N/C(=C(/C#N)C(=O)NC3CCCC3)c3ccccc32)cc1OC	i
O=C(Cn1nnn(-c2ccc(NS(=O)(=O)c3ccccc3F)cc2)c1=O)NC1CC1	i
Cc1n[nH]c(C)c1S(=O)(=O)N1CCN(Cc2nc3ccccc3[nH]2)CC1	i
Cc1nc(C)c(C(=O)C2=C(O)C(=O)N(CCCN(C)C)C2c2cccc(F)c2)s1 (centres undefined)	i
COc1ccccc1-c1c(NC(=O)c2ccco2)n(C)c2ccccc2c1=O	i
CNC(=O)C1CCC(Cn2c(=O)c3sccc3n(CC(=O)NCCCc3ccccc3)c2=O)CC1 (centres undefined)	i
CCCN1C(=O)C(C)(C)COc2ccc(NC(=O)NC(C)(C)C)cc21	i
CCOC(=O)N1CCN(C(=O)c2cn(-c3cccc(Cl)c3)nn2)CC1	i
Cc1ccc(C2C(=C(O)c3c(C)nc4c(C)cccn34)C(=O)C(=O)N2CCN(C)C)cc1 (centres undefined)	i
O=C(CN1C(=O)c2ccccc2OC(c2ccccc2)C1=O)c1ccccc1 (centres undefined)	i
O=C(NCCC1=CCCCC1)C(=O)NCCC(O)c1ccccc1 (centres undefined)	i
CC(C)Cn1c(=O)c2ccccc2n(Cc2nc(-c3cccc(C(F)(F)F)c3)no2)c1=O	i
COc1ccc(Cl)cc1NC(=O)Cn1ccn2nc(-c3ccccc3)cc2c1=O	i
COCCNC(=O)/C(C#N)=C1\N=C(NC(=O)c2ccc(C(C)(C)C)cc2)c2ccccc21	i
COc1ccc(Oc2c(C)oc3cc(OCC(N)=O)ccc3c2=O)cc1	i
COCCN1CCC(NC(=O)Cc2cn(C)c3ccccc23)CC1	i
CC(C)c1nccn1CC1CCN(C(=O)c2cc(-c3ccco3)on2)CC1	i
NS(=O)(=O)c1ccc(NC(=O)CSc2ccc3ccccc3n2)cc1	i
Cc1cccc(S(=O)(=O)C(C#N)c2nc3ccccc3nc2N2CCN(C)CC2)c1 (centres undefined)	i
O=C1c2cccc3cccc(c23)C(=O)N1CCc1ccc(S(=O)(=O)NC2CCS(=O)(=O)C2)cc1 (centres undefined)	i
COc1ccc(-c2nc(CNC(=O)Cn3nc(-c4cccs4)ccc3=O)cs2)cc1	i
COC(=O)c1ccsc1NC(=O)c1cc2n(n1)CCCO2	i
CC1CCCN(c2ccc(-c3noc(CN4CCc5ccccc5C4)n3)cn2)C1 (centres undefined)	i
COc1ccc(-c2c(NC(C)=O)n(C)c3ccccc3c2=O)cc1	i
O=C(Cn1nc2c(c1NC(=O)c1c[nH]c3ccccc13)CSC2)NCC1CCCO1 (centres undefined)	i
O=C(CCc1csc(NC(=O)c2ccc(=O)[nH]c2)n1)NCc1ccco1	i
Cc1nn(-c2ccccc2)c(C)c1N1CCN(C(=O)c2cc(=O)c3ccccc3o2)CC1	i
O=C(CCCn1cccc1)Nc1nccs1	i
COc1ccc(OCc2noc(CNC(=O)CCc3c(C)noc3C)n2)cc1	i
Cc1nnc(SCC(=O)Nc2ccc(Cl)cc2)c2c1cnn2-c1ccccc1	i
O=C(Nc1ccc(S(=O)(=O)N2CCc3ccccc32)cc1)c1ccncc1	i
CC(C)NC(=O)CSc1ncc(-c2ccccc2)n1-c1ccccc1	i
O=C(CSc1nccc(N2CCCC2)n1)Nc1ccc(Br)cc1F	i
CCCCN(C)C(=O)Cn1c(C2CC(=O)N(c3ccc(C)cc3)C2)nc2ccccc21 (centres undefined)	i
O=S(=O)(NCCc1nc(C2CC2)cc(C(F)(F)F)n1)c1ccc2c(c1)OCCO2	i
